Bioassay records as filed in PubChem.
B2AR ag: beta2AR agonists driving receptor internalization, primary screen, cell-based, FAP fluorogen, flow cytometry; hit rate 0.43% among 340,000; response, % (no concentration beside the values); Am2.2-beta2AR cells; reference of the scale not given here; Beta-2 adrenergic receptor (Homo sapiens), P07550;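 active = response above a set limit, near 3 SD of response in nonfluorescent compounds, cut at about 42% in these data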;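 also: stock transfer was 100 nL into about 11 µL; a reference agonist was the positive control; negative values mostly stem from fluorescent compounds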
FGF22 binding: binders of human FGF22 protein, primary screen, FGF22 synaptogenesis inhibitor project, biophysical, thermal shift, single point; Fibroblast growth factor 22 (Homo sapiens), Q9HCT0; recombinant FGF22 thermal shift, SYPRO orange fluorescence; percent of sucrose octasulfate shift, DMSO zero; calls only at 9.99 µM; hit rate 1.5% among 340,000;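 active = melting point raised past a set limit in the mean and every replicate; three in four hits are not shown here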
Ecoli growth: E. coli growth inhibition, primary screen, OD600; Escherichia coli growth, 23 h; hits give low values; OD600 absorbance (concentration not given with the values); hit rate 0.21% among 330,000; AID 1053175, 2014;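 active = OD600 absorbance below the run mean of sample wells minus 3.6 SD, in any replicate, cut at about 0.56 in these data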;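 also: stock transfer was 300 nL into about 60 µL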
ALR inh: inhibitors of human ALR sulfhydryl oxidase, primary screen, biochemical, H2O2 detection, HRP-luminol luminescence, single point. purified ALR, DTT oxidation. inhibition, % (test concentration not listed). hit rate 3.8% among 290,000;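 active = mean and each replicate at 75% or more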;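 also: stock transfer was 7.5 nL into about 7.5 µL; 0% = neutral wells and 100% = wells with inactivated enzyme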
HNF4A DNA FP: change in binding of human HNF4A to DNA, primary screen, biochemical, fluorescence polarization, FITC-DNA; activity change, % at 10 µM; 1 h; hit rate 0.3% among 360,000; Hepatocyte nuclear factor 4-alpha (Homo sapiens), P41235; in the data active = activity change above about 30%, passing the limit was not always enough;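 also: controls were the assay level and a saturating level of protein; the project sought stronger binding though the title names inhibitors; some compounds called inactive have numbers as strong as hits; positive values seem to mean higher polarization but the record does not say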
LANA-H2B inh: blockers of LANA interaction with H2A/H2B – biochemical, FP readout, HTS, primary screen | hit rate 0.6% among 320,000 | inhibition, % (no concentration beside the values) | cell-free LANA-H2A/H2B peptide, fluorescence polarization | Protein LANA1 (Human herpesvirus 8 type P (isolate GK18)), Q9QR71; in the data active = inhibition mostly above about 10%, no sharp cut-off; inactive = mostly below about 6.7%;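 also: stock transfer was 7.5 nL into about 10 µL; 0% = median of vehicle wells and 100% = median of positive control wells; one replicate is shown; the record names a cut of 25% in any replicate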
Target sequence (Q9QR71 whole entry, looked up): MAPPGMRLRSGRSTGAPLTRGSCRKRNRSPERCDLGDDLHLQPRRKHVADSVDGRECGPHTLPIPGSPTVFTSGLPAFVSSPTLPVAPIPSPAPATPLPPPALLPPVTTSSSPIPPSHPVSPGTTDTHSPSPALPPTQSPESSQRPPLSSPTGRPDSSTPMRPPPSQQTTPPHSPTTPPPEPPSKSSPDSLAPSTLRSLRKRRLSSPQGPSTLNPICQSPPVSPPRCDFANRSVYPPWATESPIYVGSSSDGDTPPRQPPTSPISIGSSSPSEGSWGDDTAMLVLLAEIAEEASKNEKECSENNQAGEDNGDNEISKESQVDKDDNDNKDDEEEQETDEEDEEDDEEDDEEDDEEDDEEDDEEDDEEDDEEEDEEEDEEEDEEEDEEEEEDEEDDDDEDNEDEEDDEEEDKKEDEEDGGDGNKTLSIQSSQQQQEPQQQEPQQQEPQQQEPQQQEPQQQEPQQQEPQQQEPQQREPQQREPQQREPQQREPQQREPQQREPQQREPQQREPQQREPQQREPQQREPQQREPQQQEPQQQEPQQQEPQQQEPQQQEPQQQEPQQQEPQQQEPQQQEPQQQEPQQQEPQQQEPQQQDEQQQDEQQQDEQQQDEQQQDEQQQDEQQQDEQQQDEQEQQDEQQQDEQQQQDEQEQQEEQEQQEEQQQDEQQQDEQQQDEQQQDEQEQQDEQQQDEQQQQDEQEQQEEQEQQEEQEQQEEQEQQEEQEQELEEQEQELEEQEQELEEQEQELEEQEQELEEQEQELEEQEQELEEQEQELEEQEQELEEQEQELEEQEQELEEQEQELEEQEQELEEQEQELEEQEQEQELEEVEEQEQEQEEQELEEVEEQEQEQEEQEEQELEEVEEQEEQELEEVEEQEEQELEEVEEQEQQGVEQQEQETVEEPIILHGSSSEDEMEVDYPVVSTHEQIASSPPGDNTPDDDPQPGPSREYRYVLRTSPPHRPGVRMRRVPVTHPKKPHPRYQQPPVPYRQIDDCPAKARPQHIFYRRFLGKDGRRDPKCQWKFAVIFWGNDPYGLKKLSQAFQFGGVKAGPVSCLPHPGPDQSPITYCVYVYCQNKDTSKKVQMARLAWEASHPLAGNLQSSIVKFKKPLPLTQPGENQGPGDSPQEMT
UCH37 inh: inhibitors of human UCH37 deubiquitinase, primary screen, biochemical, Ub-AMC cleavage, fluorescence; purified proteasome/UCH37; inhibition, % (test concentration not listed); hit rate 0.33% among 330,000;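 active = mean of two replicates above 20%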;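 also: 0% = compound-free wells with enzyme and 100% = wells lacking proteasome; stock transfer was 100 nL into about 20 µL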
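Reagent: Ub-AMC substrate; assay system: Proteasome-associated human UCH37 deubiquitinase; controls: no-proteasome and no-compound wells; read-out: % inhibition of Ub-AMC cleavage fluorescence; timing: 30 min preincubation with enzyme, 25 min cleavage at room temperature; signal: AMC fluorescence from Ub-AMC cleavage, excitation 355 nm, emission 460 nm; buffer or medium: Tris-HCl pH 7.4 plus ovalbumin, ATP-MgCl2, DTT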
Starred values were filed as active, the others as inactive; i = inactive; . = no result given. These rows are one share of the data; count on the stated rates, not on these rows.

SMILES	B2AR ag	FGF22 binding	Ecoli growth	ALR inh	HNF4A DNA FP	LANA-H2B inh	UCH37 inh
COc1ccc(C(=O)NCc2ncccc2C)cc1OC1CCN(C(C)=O)CC1	7	i	0.64	-6	1.1	-0.3	4.0
COC(=O)c1ccccc1NC(=O)CN(c1cc(OC)ccc1OC)S(C)(=O)=O	0	.	0.69	-29	-2.8	-3.5	1.1
O=C1C=C(NCc2ccco2)C2(CCCCC2)O1	-4	.	0.74	-1	-1.8	-0.7	2.2
O=C(Cc1ccccc1)NCC(=O)OCC(=O)c1ccc(OC(=O)c2ccccc2)cc1	3	.	0.68	-1	-0.6	2.9	2.9
N#C/C=C/C(=C\Nc1ccc(Cl)cc1)S(=O)(=O)c1ccccc1	-3	i	0.75	0	-0.1	-2.1	-7.1
COc1cc(C)c(S(=O)(=O)N2CCCC2)cc1C(C)C	6	i	0.65	0	0.7	6.0	0.4
CC1(C)CC(=O)C(C=Nc2ccc3c(c2)OCO3)=C(O)C1	-2	.	0.65	-15	0.7	2.1	9.0
Cc1cc(C)cc(N(CC(=O)NC2CCC(C)CC2)S(=O)(=O)c2c(C)[nH]c(=O)[nH]c2=O)c1 (stereo unspecified)	-7	i	0.69	0	2.8	0.9	3.1
CCOC(=O)N1CCC(NS(=O)(=O)c2cc3c(cc2C)NC(=O)CO3)CC1	16	.	0.67	-4	1.4	9.2	1.4
NS(=O)(=O)c1ccc(N2CCCC2=O)c([N+](=O)[O-])c1	-3	i	0.7	-5	2.0	2.2	5.6
O=C1OCc2ccc(NC(=O)C3CC3)cc21	-1	i	0.7	-1	-6.7	-3.0	0.1
Cc1cccnc1NC(=O)C1c2ccccc2Oc2ccccc21	.	i	0.71	-2	3.0	1.7	3.4
COc1cccc([C@@H]2CC=C(C(=O)O)[C@H](c3ccc(Br)cc3)N2S(=O)(=O)c2ccc(C)cc2)c1	3	i	0.69	.	0.1	.	-0.5
CS(=O)(=O)N1CCc2cc(NC(=O)c3ccc(Cl)cc3Cl)ccc21	-13	i	0.67	2	1.1	3.4	3.2
Cc1ccc(Oc2ccc(-c3nc(N)nc(N)n3)cc2)cc1	-1	.	0.64	8	0.2	-1.7	7.9
Cc1ccc(CN2CCC(C(=O)Nc3ccc(Oc4cccnc4)cc3)CC2)cc1	-14	i	0.71	.	0.9	.	4.7
Cc1cc(C)cc(N2CCCC2=O)c1	0	.	0.68	0	1.3	1.9	2.7
Cc1cccc(NC(=O)CSc2nc3ccccc3c3nc(CCc4c(C)n[nH]c4C)nn23)c1	25	.	0.66	0	4.8	-4.1	-0.6
CCOC(=O)C1(CCOc2ccccc2)CCN(Cc2ccc(OC)c(COC)c2)CC1	6	i	0.61	-21	-5.7	6.5	3.1
CCN(CC(=O)Nc1ccccc1C(F)(F)F)C(=O)CCOc1ccc(C)cc1	-9	i	0.71	.	-0.4	.	3.9
CCOC(=O)N1CCN(C(=O)c2cn(C)c(=O)c3c2c2ccccc2n3C)CC1	-8	.	0.75	-4	-0.6	0.2	-119
c1cnc(SCCOc2cccc3ccccc23)nc1	16	.	0.69	-4	0.6	4.4	4.0
CCC(=O)NC1=C(C#N)C2(CCCC2)Cc2ccccc21	-5	.	0.79	-7	4.0	2.3	3.0
CC1(C)CC(=O)C(/C=N/n2c(C(F)(F)F)nc3ccccc3c2=O)=C(O)C1	-5	i	.	-3	1.5	-0.8	.
O=C(Nc1ccc(NC(=O)c2ccco2)cc1)c1ccc2c(c1)OCO2	-24	.	0.67	-5	1.7	6.0	-2.2

The closing five compounds of the section above open the next one.
SMILES	B2AR ag	FGF22 binding	Ecoli growth	ALR inh	HNF4A DNA FP	LANA-H2B inh	UCH37 inh
CCOC(=O)N1CCN(C(=O)c2cn(C)c(=O)c3c2c2ccccc2n3C)CC1	-8	.	0.75	-4	-0.6	0.2	-119
c1cnc(SCCOc2cccc3ccccc23)nc1	16	.	0.69	-4	0.6	4.4	4.0
CCC(=O)NC1=C(C#N)C2(CCCC2)Cc2ccccc21	-5	.	0.79	-7	4.0	2.3	3.0
CC1(C)CC(=O)C(/C=N/n2c(C(F)(F)F)nc3ccccc3c2=O)=C(O)C1	-5	i	.	-3	1.5	-0.8	.
O=C(Nc1ccc(NC(=O)c2ccco2)cc1)c1ccc2c(c1)OCO2	-24	.	0.67	-5	1.7	6.0	-2.2
O=C(COC(=O)COc1ccc(Cl)cc1)NC1CCCCC1	-3	.	0.69	0	2.9	4.8	2.9
CCN(C(=O)CSc1nnc(Nc2cccc(C)c2C)s1)C1CCS(=O)(=O)C1 (stereo unspecified)	-1	i	0.7	-9	-3.3	-0.8	5.7
N#CC1=C(N)OC2=C(C(=O)CCC2)C1c1ccoc1 (stereo unspecified)	4	i	0.7	-7	-1.2	1.6	-0.9
CN(c1ncc(C(F)(F)F)cc1Cl)N1C(=O)C2ONC3(C(=O)CC(C)(C)CC3=O)C2C1=O (stereo unspecified)	-3	i	0.68	3	-0.4	0.2	3.6
COc1ccc(-c2oc3ncnc(NCCCN4CCOCC4)c3c2-c2ccc(OC)cc2)cc1	12	.	0.69	-10	1.0	-0.1	-69
Nn1c(SCC(=O)Nc2ccccc2Br)nnc1-c1ccco1	-21	i	0.65	23	-0.4	11	0.8
COc1ccc(CN=C(N)N=C(N)N)cc1Cl	1	i	0.64	31	-1.9	-1.4	1.1
CCN1C(=O)CSc2ccc(C(=O)NCc3ccc(OC)cc3)cc21	-3	.	0.76	-8	3.9	4.9	1.0
COc1ccc(CCNC(=O)NC(C(F)(F)F)C(F)(F)F)cc1OC	8	.	0.76	-2	-2.5	-0.4	2.0
O=C(Cc1ccc(S(=O)(=O)N2CCOCC2)s1)NNC(=O)c1ccccc1Cl	5	i	0.67	-2	6.6	-1.2	4.2
CCOC(=O)C1CCN(S(=O)(=O)c2ccc(-n3cnnn3)c(C)c2)CC1	9	i	0.7	4	0.9	3.9	-0.3
COc1ccc([C@H]2CC(=O)C=C(c3cc4ccccc4c4ccccc34)C2)cc1	-1	i	0.84	-9	-3.4	-3.6	-8.6
O=C(NCC1COc2ccccc2O1)C1CCN(S(=O)(=O)c2ccc(Cl)cc2)CC1 (stereo unspecified)	-4	i	0.7	-5	-2.4	-3.3	0.6
CCCCOc1ccc(C(=O)NCCc2cccs2)cc1	-4	.	0.68	-1	-1.5	-0.1	1.0
CN(C(=O)CSc1nc(-c2ccc(C(C)(C)C)cc2)c(C#N)c(=O)[nH]1)C1CCCCC1	15	i	.	93*	6.6	1.0	.
Nc1c(C(=O)Nc2ccc(S(=O)(=O)N3CCCC3)cc2)sc2nc3ccc(OC(F)(F)F)cc3cc12	-4	.	0.74	-2	43*	-5.5	3.5
CCN(CC)S(=O)(=O)c1ccc(OC)c(NC(=O)Cc2cccs2)c1	-1	i	0.71	-10	-17	-3.4	3.5
CCCC(C(=O)Nc1ccc(S(=O)(=O)Nc2nccs2)cc1)c1ccccc1 (stereo unspecified)	5	i	0.68	.	0.4	.	4.4
Cc1ccc2nc(SCC(=O)c3ccc4c(c3)OCO4)[nH]c2c1	2	.	0.69	27	0.8	-1.3	1.8
O=c1cc(CN2CCN(S(=O)(=O)c3ccccc3)CC2)nc2sccn12	3	i	0.69	-1	-0.5	-2.5	-1.3
Nc1cc(=O)n(Cc2ccccc2)c(=O)n1Cc1ccccc1	-14	i	.	.	0.1	.	.
Oc1ccccc1OCc1nc2ccccc2s1	-4	.	0.68	30	-1.5	1.2	5.1
COc1ccc(Cn2cccc(NC(=O)Nc3ccc(F)cc3)c2=O)cc1	5	i	0.66	-8	3.6	2.7	-13
O=C1CC(c2ccccc2)CN1S(=O)(=O)c1ccccc1 (stereo unspecified)	11	i	0.69	-7	1.4	6.7	1.2
O=C(C1=C(O)C(=O)N(CCCN2CCOCC2)C1c1ccccn1)c1cc2ccccc2o1 (stereo unspecified)	9	.	0.71	12	4.9	28*	16
(more compounds)
SMILES	B2AR ag	FGF22 binding	Ecoli growth	ALR inh	HNF4A DNA FP	LANA-H2B inh	UCH37 inh
O=C(Cn1cnc2c(nnn2Cc2ccc(F)cc2)c1=O)Nc1cccc(F)c1	-5	i	0.68	-4	5.1	-1.5	2.4
O=C(COc1cccc2c1CCN(Cc1ccccc1F)C2=O)N1CCCCC1	5	.	0.68	.	0.7	-1.0	5.0
CCN(CCCNC(=O)CCn1c(=O)[nH]c2ccsc2c1=O)c1ccccc1	-11	i	0.68	99*	0.6	-2.6	3.5
CCOC(=O)c1c(S(=O)(=O)NCC(=O)Nc2cccc(C)c2)c(C)n(C)c1C	-411	i	0.69	-4	-0.4	-5.9	3.5
Cc1cc(=O)oc2cc(OCC(=O)NCCCN3CCOCC3)c(Cl)cc12	3	i	0.67	-3	1.6	0.6	-8.6
CC(CCc1ccccc1)NC(=O)c1cc2sccc2n1C (stereo unspecified)	-1	i	0.65	17	-3.5	-0.4	5.5
Cc1nc2cc(Cl)ccc2n1CCO	12	i	0.75	-2	-0.8	-0.1	3.5
Cc1ccccc1C(=O)NC1CCN(C(=O)NC2CCCCC2)CC1	2	i	0.67	2	-1.2	8.4	2.4
CCOc1ccc2nc(SCC(=O)c3cccs3)sc2c1	-2	.	0.75	.	1.3	2.1	3.7
CCN1CCN(C(=S)c2ccc(OCC(=O)NCc3ccccc3)cc2)CC1	9	i	0.65	5	-2.7	8.1	-1.3
CCN1CCN(c2nc(Nc3cc(OC)ccc3OC)nc(Nc3cc(OC)ccc3OC)n2)CC1	20	i	0.66	-3	-1.8	-2.0	1.3
Cc1ccc(CNC(=O)CN(c2ccc(C(C)C)cc2)S(=O)(=O)c2c(C)noc2C)cc1	1	i	0.73	5	4.2	-5.6	-0.7
Cc1ccc(C)c(-c2csc(NC(=O)C3=COCCO3)n2)c1	6	i	0.7	61	0.4	-1.5	2.9
COc1ccccc1C(=O)NC(CCSC)C(=O)NC1CCCCCC1 (stereo unspecified)	-7	i	0.66	-3	-2.2	5.4	-2.2
O=C(O)c1ccccc1NC(=O)C(Cc1ccccc1)N1C(=O)c2ccccc2C1=O (stereo unspecified)	3	i	0.66	.	-1.4	7.2	3.4
O=C(COC(=O)Cn1cnc2ccccc21)NCc1ccc(F)cc1	-2	i	0.7	1	-2.9	1.0	-2.9
COc1cccc(/C=C2\SC(=S)N(C(C)C(=O)NC3C=CS(=O)(=O)C3)C2=O)c1 (stereo unspecified)	7	i	0.63	62	1.4	28*	0.1
C/C(=N/NS(=O)(=O)c1ccc(Cl)cc1)c1cccc(NC(=O)c2ccc(Cl)cc2Cl)c1	6	.	.	-5	-2.0	-0.7	.
CCOC(=O)c1cn(Cc2ccc(Br)cc2)nn1	10	.	0.67	-8	-1.9	0.3	-25
Cc1nn(Cc2ccccc2)c(Cl)c1C(=O)NCc1ccc(C)n1C	-4	.	0.66	-19	3.1	-2.6	3.5
Cc1nc(N)[nH]c(=O)c1CCCNc1ccc(CCC2(CCl)OCCO2)cc1	8	i	0.69	.	2.7	.	0.8
CCOc1ccc(-c2nc(CS(=O)(=O)CC(=O)NCc3ccc(F)cc3)c(C)o2)cc1	-8	i	0.76	25	-1.3	-3.0	0.4
O=C(Nc1ncc(Cc2ccc(SC(F)F)cc2)s1)c1ccccc1	13	.	0.67	-7	2.6	-3.3	-0.9
CS(=O)(=O)CCC(C(=O)n1nnc2ccccc21)N1C(=O)c2ccccc2C1=O (stereo unspecified)	-1	.	0.75	-20	4.6	0.3	0.0
